Env fusion inh: inhibitors of HIV-1 Env-driven cell-cell fusion, primary screen, HeLa-JRFL effector, CEM21 target cells, luciferase; inhibition, % at 12.3 µM; hit rate 1.1% among 360,000;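 active = mean replicate inhibition score of at least 50 and every replicate individually at or above 50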;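 note: 0% = plate neutral controls and 100% = maraviroc near 300 nM; one replicate is shown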
CSC inhib: cancer stem cell viability inhibitors, primary screen, luminescence | hit rate 1.1% among 300,000 | inhibition, % at 7.5 µM | cancer stem cell-like cells viability;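 active = mean at 75% or more and at least half the replicates too; tested in HMLE shEcad cells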;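 note: 0% = median of negative and 100% = median of positive control wells; the first replicate is given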
PABP FP inh: PABP poly(A) RNA binding inhibitors, primary screen, biochemical, fluorescence polarization, uHTS; Polyadenylate-binding protein 1 (Homo sapiens), P11940; inhibition, % at 35 µM; hit rate 1% among 290,000;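 active = 50% or more with normal probe brightness, or confirmed in later tests; about a fifth of its hits are not listed in these tables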;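 note: calls also rest on retests at 20 µM and on dose response follow-up; controls were probe without protein and protein plus probe with vehicle; some compounds called inactive have numbers as strong as hits; many hits fall short of the cut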
Target sequence (P11940 whole entry, looked up): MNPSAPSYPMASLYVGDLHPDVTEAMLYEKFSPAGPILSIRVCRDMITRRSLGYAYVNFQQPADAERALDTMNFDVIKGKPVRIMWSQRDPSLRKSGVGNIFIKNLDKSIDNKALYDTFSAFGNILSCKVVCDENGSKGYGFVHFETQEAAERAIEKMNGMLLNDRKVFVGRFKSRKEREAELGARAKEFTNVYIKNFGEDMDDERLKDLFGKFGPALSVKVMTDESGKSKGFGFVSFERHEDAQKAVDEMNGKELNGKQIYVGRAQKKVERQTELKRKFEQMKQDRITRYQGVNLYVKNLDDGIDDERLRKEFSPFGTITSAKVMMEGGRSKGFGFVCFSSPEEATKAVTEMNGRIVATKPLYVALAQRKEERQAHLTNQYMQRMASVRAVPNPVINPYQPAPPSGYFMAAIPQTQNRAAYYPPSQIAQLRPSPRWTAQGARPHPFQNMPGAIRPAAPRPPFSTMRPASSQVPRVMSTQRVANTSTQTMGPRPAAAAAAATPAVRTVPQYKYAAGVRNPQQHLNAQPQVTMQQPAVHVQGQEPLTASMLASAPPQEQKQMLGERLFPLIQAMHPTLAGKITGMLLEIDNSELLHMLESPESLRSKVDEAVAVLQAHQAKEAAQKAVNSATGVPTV
eIF4H FP inh: human eIF4H binding inhibitors, primary screen, translation initiation inhibitor project, biochemical, uHTS, fluorescence polarization; hit rate 0.94% among 290,000; AID 2012, 2009; Eukaryotic translation initiation factor 4H (Homo sapiens), Q15056; eIF4H fluorescence polarization binding assay; inhibition, % at 35 µM;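 active = 50% or more with normal probe brightness, or confirmed in later tests; about a fifth of its hits are not listed in these tables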;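 note: calls also rest on retests at 20 µM and on dose response follow-up; 0% = protein and probe with vehicle and 100% = probe without protein; strong numbers were not always called active; many hits fall short of the cut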
Yeast UUG start: modulators of yeast start codon fidelity, primary screen, whole organism, S. cerevisiae, single point, plate reader; S. cerevisiae UUG-firefly luciferase reporter, luminescence/redox ratio; activity score, % at 18.7 µM; hit rate 0.13% among 350,000; AID 602363, 2012;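 active = replicate mean at a twofold rise or more, about +100% in these data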;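 note: firefly luciferase made from a UUG start codon reports start codon fidelity; reporter light over untreated wells divided by growth signal over untreated wells; some hits fall short of that in this replicate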
Rce1 inhib: yeast Rce1p protease inhibitors, primary screen, biochemical, fluorescence, cell-free homogeneous. CAAX prenyl protease 2 (Saccharomyces cerevisiae (strain ATCC 204508 / S288c)), Q03530. yeast membranes, quenched prenylated peptide cleavage fluorescence. calls only. hit rate 0.27% among 290,000. AID 2563, 2010;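 active = fall in fluorescence gain of 50% or more versus controls, with final raw signal at or below 3038400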;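 note: plate controls were neutral control wells for no effect and wells lacking membranes for full effect; tested at 10 µM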
Target sequence (Q03530 whole entry, looked up): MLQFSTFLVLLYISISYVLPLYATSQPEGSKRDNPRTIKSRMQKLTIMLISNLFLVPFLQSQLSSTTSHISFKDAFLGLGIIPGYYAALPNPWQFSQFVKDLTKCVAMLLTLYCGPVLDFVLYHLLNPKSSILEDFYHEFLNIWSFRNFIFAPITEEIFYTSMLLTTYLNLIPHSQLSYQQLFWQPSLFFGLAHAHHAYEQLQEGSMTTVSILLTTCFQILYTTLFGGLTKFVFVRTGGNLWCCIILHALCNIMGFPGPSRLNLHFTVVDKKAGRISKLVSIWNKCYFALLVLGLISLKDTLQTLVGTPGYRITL
MT1-MMP act inh: blockers of MT1-MMP proenzyme processing, primary screen, HT1080 RFP-PRO-GFP cells, GFP/RFP fluorescence. Matrix metalloproteinase-14 (Homo sapiens), P50281. GFP/RFP ratio fluorescence, overnight; percent of plate control window, DMSO zero. GFP/RFP ratio change, % at 20 µM. hit rate 0.061% among 360,000. AID 651647, 2012;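 active = GFP/RFP ratio change of at least 30% with cell ATP level not reduced by more than half and red fluorescence within 50% of control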; note: strong numbers were not always called active
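Assay system: HT1080 RFP-PRO-GFP cells. Benchmarks: DMSO vehicle wells and RFP-L50D-GFP reporter cell wells. Times: overnight cell settling, then overnight compound exposure, 37 °C, 5% CO2. Compound: 20 µM single dose, 1% DMSO. Read-out basis: GFP/RFP fluorescence ratio.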
eIF4H FP inh retest: recorded beside eIF4H FP inh, whose call it bears; inhibition, %; compound at 20 µM; confirmation average;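 mean of two retest wells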
PABP FP inh retest: also measured in PABP FP inh; calls as there; inhibition, %; compound at 20 µM; confirmation repeats;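 mean of two retest wells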
MT1-MMP act inh RFP: second read-out of MT1-MMP act inh, no call of its own (marks repeat the call); RFP signal change, %; measured here: RFP expression control read;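 0 = vehicle wells; hits needed this value within 50% of zero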
The depositor's hits bear a star; i = inactive; x = no result given; & = joins results of further samples; [ ] = another dose, or the depositor's remark. This is a subset; the hit share may differ from the screen's.

SMILES | Env fusion inh | CSC inhib | PABP FP inh | eIF4H FP inh | Yeast UUG start | Rce1 inhib | MT1-MMP act inh | MT1-MMP act inh RFP | others
COc1cc(NC(=O)c2ccc(S(=O)(=O)N(C)c3ccccc3OC)cc2)cc(OC)c1 | -6 | -2 | x | x | 12 | x | 3 | -7
CC(=O)Nc1ccc(NC(=O)CSc2nc3ccccc3nc2N2CCCCC2)cc1 | -1 | 16 | 5 | -9 | -15 | i | 2 | 0
NC(=O)NCC12CC3CC(CC(C3)C1)C2 | x | -11 | -6 | 4 | -16 | i | -1 | 0
Cc1cc(C)n2nc(C(=O)OCC(=O)NC3CCCCC3)nc2n1 | 2 | -12 | x | x | -2 | i | 1 | 7
CCCCN1C(=O)C(=O)N(CC(=O)Nc2ccccc2C(C)=O)C1=O | -3 | -5 | x | x | -4 | x | 3 | 5
O=C(NCc1ccc(Cl)cc1)c1ccc(Cl)cc1[N+](=O)[O-] | -4 | -5 | -11 | -5 | -10 | i | 1 | -1
CC(=O)NCC(=O)N1CCCC(C(=O)c2ccc(-c3ccccc3)c(F)c2)C1 (configuration not stated) | -3 | -13 | 1 | 2 | -15 | i | -14 | 4
COc1ccc(C2NC(=O)NC(O)(C(F)(F)F)C2C(=O)c2ccc(F)cc2)cc1 (configuration not stated) | x | -1 | -3 | -11 | 6 | i | 3 | 13
Cc1ccc2c(COC(=O)c3ccc(NC(=O)CC#N)cc3)cc(=O)oc2c1C | -1 | -3 | -3 | -11 | -17 | i | -1 | 1
C=C(C)CN(Cc1ccccc1)C(=S)Nc1ccccc1 | -6 | -2 | -5 | -1 | -17 | i | -10 | -2
COc1cc(CNCc2ccccn2)ccc1OCc1ccc(Cl)c(Cl)c1 | 13 | 30 | -5 | 13 | -55 | i | -3 | -3
O=C(NC1CCCC1)c1noc2c1CCCCC2 | -8 | -18 | -3 | -1 | x | i | 1 | -2
CS(=O)(=O)N1CCN(C(=O)c2c(F)cccc2F)CC1 | -3 | -8 | 0 | 0 | x | i | 0 | -2
COC(=O)Nc1nc2ccc(-c3n[nH]c(=O)c4ccccc34)cc2[nH]1 | 4 | 104* | 3 | 1 | x | i | -1 | -6
COc1ccc(S(=O)(=O)N2CCOCC2)cc1NC(=O)COC(=O)C1CC2CCCC(C1)C2=O (configuration not stated) | -4 | -21 | 20 | -2 | -3 | i | 2 | 3
COC(=O)C1=C(C)NC(C)=C(C(=O)OCC2CCCO2)C1c1ccc(Cl)c([N+](=O)[O-])c1 (configuration not stated) | -16 | -3 | -6 | 2 | 12 | x | -6 | -3
CC(Sc1nnc(NC2CCCCC2)s1)C(=O)N1CCOCC1 (configuration not stated) | -6 | 4 | x | x | x | i | -3 | -1
O=C(N=C1SC2CS(=O)(=O)CC2N1Cc1ccc(Cl)cc1)C1CCCO1 (configuration not stated) | 5 | -4 | 0 | -8 | -15 | i | -3 | -2
Clc1ccc2nc(CSc3nnc(-c4c[nH]c5ccccc45)o3)cn2c1 | 11 | x | x | x | -13 | x | 1 | 2
CCOC(=O)C1(C)CCCCCN1C(=O)c1csnn1 (configuration not stated) | 10 | x | x | x | -8 | x | 5 | 8
COCCOC(=O)C1=C(C)N(Cc2ccccc2)C(=O)NC1c1ccc(OC)cc1 (configuration not stated) | x | -2 | 3 | -5 | -2 | i | 2 | -1
CC1=C(C(=O)N2CCc3ccccc32)C2(CCC(C)CC2)OC1=O (configuration not stated) | 36 | -4 | 1 | -11 | 1 | i | -4 | 5
COc1cccc(CNC(=O)Cc2ccc(NC3=NC4CS(=O)(=O)CC4S3)cc2)c1 (configuration not stated) | 5 | x | 12 | -10 | -18 | i | 0 | 3
Cc1ccc2c(Cl)cc(Cl)c(OCc3c(C)noc3C)c2n1 | x | -4 | -2 | 4 | -1 | i | 0 | 4
O=C(CCCn1c(=O)[nH]c2cc(Cl)ccc2c1=O)NCCN1CCN(c2ccccc2)CC1 | x | 1 | -2 | 6 | 15 | i | -1 | -4
C[C@H]1CN([C@@H](C)CO)S(=O)(=O)c2ccc(Br)cc2O[C@H]1CN(C)C(=O)C1CCC1 | 16&38[16.7 µM] | x | x | x | 4&4 | x | 0 | 3
CCc1nnc(NC(=O)NCN2C(=O)C3C4C=CC(C4)C3C2=O)s1 (configuration not stated) | x | -1 | 3 | -11 | -11 | i | 5 | 8
C=CCOC(=O)/C(=C\c1ccc(OC)cc1)NC(=O)c1ccco1 | x | -10 | -7 | -19 | x | i | 1 | 0
COc1ccc(CNC(=O)COC(=O)CC2CCCC2)cc1 | 11 | -2 | 8 | 8 | x | i | -2 | 4
CC1CN(CCC(=O)Nc2ccc3c(c2)OCO3)CC(C)O1 (configuration not stated) | x | x | 18 | 10 | -8 | i | -1 | -5
COc1ccccc1CNC(=O)CSc1ccc(C)cc1 | -3 | -8 | 5 | -7 | x | i | 4 | 6
COc1ccc(NC(=O)CSc2nnc(Cc3cccn3C)n2CCc2ccccc2)cc1OC | -16 | -20 | 8 | -4 | -21 | i | 0 | -1
COC(=O)C1CCN(S(=O)(=O)c2ccc(OC)cc2)CC1 | -98 | -7 | -2 | -6 | -16 | i | 6 | 12
COc1ccc(N(C)S(=O)(=O)c2ccc3c(c2)oc(=O)n3C)cc1 | -64 | 1 | 7 | -5 | -9 | i | -1 | 0
CCOC(=O)C1CCN(C(c2cc3ccc(C)cc3[nH]c2=O)c2nnnn2C2CCCCC2)CC1 (configuration not stated) | -40 | -6 | -35 | -4 | x | i | -8 | -8
CCCC1=C(C(=O)OCC)C(c2ccccc2OCC)NC(=O)N1C (configuration not stated) | -43 | -3 | -6 | -10 | -1 | i | -2 | 0
O=C(Oc1ccccc1C(=O)Oc1ccccc1)c1ccco1 | x | 69 | 0 | -3 | -5 | i | 1 | 2
CSCCC(NS(=O)(=O)c1ccc(Cl)cc1)C(=O)N1CCN(c2ccccc2)CC1 (configuration not stated) | 3 | x | x | x | -3 | x | 6 | 0
COc1ccc(CNc2nc3c(c(=O)[nH]c(=O)n3C)n2Cc2ccccc2)cc1 | -6 | -20 | 9 | 5 | -4 | i | 0 | 3
CC(=O)c1ccc(S(=O)(=O)N(C)CC(=O)Nc2ccc(C)cc2)cc1 | -7 | -12 | x | x | -7 | x | 1 | -2

3 compounds from above, ordered by number of heavy atoms, ascending.
SMILES | Env fusion inh | CSC inhib | PABP FP inh | eIF4H FP inh | Yeast UUG start | Rce1 inhib | MT1-MMP act inh | MT1-MMP act inh RFP | others
COc1ccc(CNC(=O)COC(=O)CC2CCCC2)cc1 | 11 | -2 | 8 | 8 | x | i | -2 | 4
CCc1nnc(NC(=O)NCN2C(=O)C3C4C=CC(C4)C3C2=O)s1 (configuration not stated) | x | -1 | 3 | -11 | -11 | i | 5 | 8
CCCC1=C(C(=O)OCC)C(c2ccccc2OCC)NC(=O)N1C (configuration not stated) | -43 | -3 | -6 | -10 | -1 | i | -2 | 0

Back to the main list, repeating the 3 entries before the break.
SMILES | Env fusion inh | CSC inhib | PABP FP inh | eIF4H FP inh | Yeast UUG start | Rce1 inhib | MT1-MMP act inh | MT1-MMP act inh RFP | others
CSCCC(NS(=O)(=O)c1ccc(Cl)cc1)C(=O)N1CCN(c2ccccc2)CC1 (configuration not stated) | 3 | x | x | x | -3 | x | 6 | 0
COc1ccc(CNc2nc3c(c(=O)[nH]c(=O)n3C)n2Cc2ccccc2)cc1 | -6 | -20 | 9 | 5 | -4 | i | 0 | 3
CC(=O)c1ccc(S(=O)(=O)N(C)CC(=O)Nc2ccc(C)cc2)cc1 | -7 | -12 | x | x | -7 | x | 1 | -2
O=C(Cc1ccc(Cl)cc1)Nc1ccc(C(=O)N2CCOCC2)cc1 | 8 | -4 | 6 | -6 | x | i | 0 | 1
CC(C)(C)OC(=O)N1CCN(C(=O)c2cccnc2Cl)CC1 | 10 | 0 | 2 | -5 | x | i | 1 | 3
O=C(Nc1ccc(S(=O)(=O)N2CCCCC2)cc1)C1CCCCC1 | -1 | -2 | 0 | 5 | -3 | x | -1 | -6
O=C(N/N=C/c1ccc(O)c2ccccc12)c1cccnc1 | 20 | 9 | 8 | -7 | x | i | -2 | 5
Cc1ccc(C)c(-n2cc[nH]c2=S)c1 | 12 | -8 | 5 | 10 | x | i | 2 | 1
O=Cc1cn(CC(=O)Nc2ccccc2)c2ccccc12 | -5 | -5 | -1 | -1 | -7 | i | 3 | -9
O=C(NCCC1=CCCCC1)C1CCN(C(=O)Cc2ccccc2)CC1 | -7 | -13 | -8 | -6 | 3 | i | -5 | -1
CC(=O)Nc1nc(N)n(-c2ccccc2)n1 | -24 | -3 | 8 | -2 | -14 | i | -3 | 4
O=C(NCc1ccc(F)cc1)C1CCC(CNc2c(N3CCCCC3)c(=O)c2=O)CC1 (configuration not stated) | -2 | -14 | -10 | 0 | 12 | i | 1 | 0
O=C(CSc1ncnc2c1nnn2Cc1ccc(F)cc1)NC1CCCCC1 | 0 | -6 | -11 | -1 | x | i | 1 | -1
O=C(NNC1=C(C(=O)C(F)(F)F)CCC1)c1ccccc1O | x | x | 23 | 6 | x | i | -3 | -9
COc1ccccc1-c1cc(C(=O)Nc2c(C)n(C)n(-c3ccccc3)c2=O)no1 | x | -17 | -9 | -6 | x | i | 1 | -1
Cc1ccc(Cn2ncc3c(N4CCN(C5CCCC5)CC4)ncnc32)cc1 | 2 | -10 | -1 | -1 | x | i | -6 | -7
Cc1nc(Oc2ccccc2)c2ccccc2n1 | 33 | -8 | -7 | 3 | x | i | 0 | 3
CCCc1cc(C(=O)Nc2cccc(Cl)c2)no1 | x | x | -5 | 13 | -24 | i | 2 | 6
O=C(CSc1ccc2ccccc2c1)NCCCN1CCCC1=O | 2 | 3 | -7 | 1 | -6 | i | -3 | 4
COc1ccc(Cl)cc1NS(=O)(=O)c1cccc(C(=O)NCCCN2CCCC2=O)c1 | 9 | -3 | 0 | -3 | 13 | i | 3 | 1
CCNC(=O)c1c(NC(=O)C2COc3ccccc3O2)sc2c1CCCC2 (configuration not stated) | x | -2 | 1 | -6 | x | i | 2 | 4
CSCCC(NC(=O)c1ccco1)C(=O)NCC1CCCO1 (configuration not stated) | x | -11 | x | x | 18 | x | -5 | 0
Cc1cccc(S(=O)(=O)c2c(C)cc(C)nc2Cl)c1 | -8 | 12 | -7 | -7 | x | x | 1 | 2
COc1ccc(NC(=O)c2ccc3c(c2)CCN3S(C)(=O)=O)cc1 | -27 | x | x | x | -9 | x | 0 | 4
COc1ccc2nc(C)cc(SCC(NC(C)=O)C(=O)OC(C)C)c2c1 (configuration not stated) | 1 | 26 | -13 | -17 | x | i | -3 | 1
Cc1c(C(=O)NNC(=S)NCc2ccc(Cl)cc2)oc2ccccc12 | 12 | 19 | 1 | 5 | -19 | i | -1 | 8
COc1ccc(C2NC(=O)C(C#N)=C(S)N2c2cccc(C)c2)cc1OC (configuration not stated) | -4 | 1 | 3 | 3 | -36 | i | 0 | -2
COc1ccc(CCN2C(=O)NC(NC(C)=O)(C(F)(F)F)C2=O)cc1OC (configuration not stated) | -6 | 5 | 83* | -3 | 0 | i | 2 | 2 | eIF4H FP inh retest=-4;PABP FP inh retest=109*

Bioassay records from PubChem BioAssay.
